Cruzain noTriton: blocks cruzain activity in detergent-free assay; Potency, µM, for inactives: max response, negative = inhibition, actives largely listed as inhibitors; 2.3% of 200,000 active; purified cruzain, Z-FR-AMC fluorescence, no detergent; active = well fitted curve in the direction sought with a large enough effect; inconclusive = small, poorly fitted or top-dose-only effect, or another doubt; inactive = no such curve, though single readings can be large; an effect the other way counts as inactive or inconclusive;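 note: plate controls were enzyme without inhibitor for no effect and buffer without enzyme for full effect; nearly all actives have a fitted effect of over 40% in size; top concentration of the series not given in the record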
Target sequence (P25779 123-467 limits assumed): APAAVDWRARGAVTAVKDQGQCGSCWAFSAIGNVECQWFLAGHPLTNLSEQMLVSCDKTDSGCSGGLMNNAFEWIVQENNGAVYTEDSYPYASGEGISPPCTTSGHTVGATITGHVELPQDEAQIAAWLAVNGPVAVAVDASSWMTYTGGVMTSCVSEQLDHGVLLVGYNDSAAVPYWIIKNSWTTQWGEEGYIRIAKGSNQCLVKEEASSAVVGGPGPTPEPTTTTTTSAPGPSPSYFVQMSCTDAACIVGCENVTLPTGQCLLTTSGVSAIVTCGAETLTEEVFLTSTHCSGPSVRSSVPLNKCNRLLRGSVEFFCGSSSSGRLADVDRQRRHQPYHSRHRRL
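Detergent-free condition (0.00005% Triton X-100) in acetate buffer pH 5.5 with DTT. 1.5 nM enzyme and compound were pre-mixed 15 min, then 2 uM Z-FR-AMC substrate added; reaction progress from fluorescence change between first and third reads (60 s).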
Marburg entry inh: inhibitors of Marburg virus binding or cell entry. Marburg virus pseudotyped entry inhibition, cell reporter; control for the full effect not named in the record; about a third of the inactives were read at about 46 µM. 1.8% of 300,000 active. Potency, µM (highest dose often 37.8 µM), inactives show at the top dose activity change, negative = inhibition, hits mostly inhibitors. AID 540276; active = well fitted inhibition curve with a large enough effect; inconclusive = small, poorly fitted or top-dose-only effect, or effect the other way; inactive = flat fitted curve, though single readings scatter; tested in HEK293 cells; about a fifth of its hits are not listed in these tables; note: % is set by controls: 0 for no effect and ±100 for the full control effect; luciferase read-out
NS1 inh: inhibitors of influenza NS1 protein function. S. cerevisiae slowed by influenza A NS1, growth recovery by OD600. Potency, µM (highest dose often 46.1 µM), for the others: at the highest dose activity, positive = more growth. 0.4% of 270,000 active. AID 2326; note: actives are rising curves; nearly all actives have a fitted effect of over 50% in size
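Recovery from NS1-induced slow growth read by OD600 in budding yeast switched to galactose assay medium (pH 6.0, -URA) at 1:100 dilution. Compound 23 nl per well; the matching strain lacking NS1 serves as control.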
StopGo reporter: lowers the luciferase signal of an FMDV 2A StopGo reporter. human cells with a luciferase reporter of 2A StopGo recoding; control for the full effect not named in the record. Potency, µM (doses to about 57.9 µM), for inactives: top-dose signal change, negative = less light. 1.2% of 410,000 active; active = well fitted falling curve with a large enough effect; inconclusive = small, poorly fitted or top-dose-only effect; inactive = no such curve, though single readings can be large or run the other way; tested in HEK293T cells; note: % is set by controls: 0 for no effect and ±100 for the full control effect; nearly all actives have a fitted effect of over 45% in size; luciferase light after 4 h
Cruzain inh Det: cruzain (T. cruzi) inhibition with detergent. P25779. 0.43% of 200,000 active. purified cruzain, Z-FR-AMC fluorescence, 0.01% Triton. Potency, µM, inactives show max response, negative = inhibition, actives largely listed as inhibitors; active = well fitted curve in the direction sought with a large enough effect; inconclusive = small, poorly fitted or top-dose-only effect, or another doubt; inactive = no such curve, though single readings can be large; an effect the other way counts as inactive or inconclusive;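 note: plate controls were neutral wells for no effect and buffer without enzyme for full effect; nearly all actives have a fitted effect of over 40% in size; top concentration of the series not given in the record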
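Detergent-containing run (0.01% Triton X-100) in acetate buffer pH 5.5 with 5 mM DTT: enzyme at 1.5 nM final, 15 min compound preincubation at room temperature, then 2 uM Z-FR-AMC substrate. Activity taken as 60 s fluorescence increase at 360/450 nm.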
SARS PLP yeast: inhibitors of SARS-CoV papain-like protease in yeast; S. cerevisiae expressing SARS-CoV PLpro, growth rescue; control for the full effect not named in the record; Potency, µM (highest dose often 32.9 µM), without a hit: at the top dose activity, positive = growth rescue; 0.19% of 330,000 active; AID 485353; note: 0% is about no effect; nearly all actives have a fitted effect of over 55% in size; growth read by luminescence after 48 h
RE007 growth inh: less growth of the S. pombe RE007 Vpr strain | S. pombe RE007 Vpr strain, BacTiter-Glo ATP luminescence, 24 h; control for the full effect not named in the record | 0.21% of 360,000 active | Potency, µM (highest dose often 92.2 µM), without a hit: at the top dose activity change, negative = less growth | AID 651644; active = well fitted falling curve with a large enough effect; inconclusive = small, poorly fitted or top-dose-only effect; inactive = no such curve, though single readings can be large or run the other way;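 note: % is set by controls: 0 for no effect and ±100 for the full control effect; nearly all actives have a fitted effect of over 50% in size; the assay follows cell death caused by Vpr and the record does not say whether a fall means rescue or toxicity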
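Fission yeast strain RE007, carrying one chromosomally integrated HIV-1 vpr copy, was seeded at OD 0.01 in PMG+AL medium with 23 nL pinned compound. After 24 h at 30 °C and 99% humidity, viability was read by BacTiter-Glo luminescence.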
LASV entry inh: inhibitors of Lassa virus binding or cell entry; Lassa virus pseudotype entry inhibition, cell reporter; control for the full effect not named in the record; Potency, µM (titrated, usually from 37.9 µM), for the others: at the highest dose activity change, negative = inhibition, most hits filed as inhibitors; 1.2% of 300,000 active; active means well fitted inhibition curve with a large enough effect; inconclusive means small, poorly fitted or top-dose-only effect, or effect the other way; inactive means flat fitted curve, though single readings scatter; tested in HEK293 cells; note: % is set by controls: 0 for no effect and ±100 for the full control effect; nearly all actives have a fitted effect of over 50% in size; luciferase read-out
Starred values were filed as active, the others as inactive; ? = inconclusive; . = not tested or not shown; & = joins results of further samples; [ ] = dose if it differs, or a comment. Unless noted, calls come from the whole dose curve; as a rule, active means well fitted rising curve with a large enough effect; inconclusive means small, poorly fitted or top-dose-only effect; inactive means no such curve, though single readings can be large or run the other way. Potency is the fitted concentration of half-maximal effect. Compounds as they come; 4.7% or so of the library scored in one or more.

SMILES | Cruzain noTriton | Marburg entry inh | NS1 inh | StopGo reporter | Cruzain inh Det | SARS PLP yeast | RE007 growth inh | LASV entry inh
Cc1ccccc1N(Cc1cc(=O)[nH]c2ccccc12)C(=O)C(C)C | . | ? | -1% | -14% | . | -2% | 1% | 2%
O=C(CSc1nc2ccccc2c(=O)[nH]1)NCc1ccc(Cl)cc1 | ? | 3% | 4% | -21% | 2.2% | -6% | 14% | -2%
COc1ccc(-c2cc(C(=O)N3CCCCCC3)no2)cc1 | . | -41%[46.1 µM] | -15% | -15% | . | -4% | -15% | .
O=c1c2ccccc2cnn1Cc1n[nH]c(=S)n1-c1ccccc1 | 1% | ? | 23% | -17% | -2.1% | -7% | 17% | ?
COc1ccc(CCNC(=O)c2cc(-c3ccc(Cl)cc3)on2)cc1OC | 1% | -9%[46.1 µM] | . | 8% | -2.8% | . | . | ?
ClC(Cl)(Cl)c1ccccc1 | 0%&-5% | . | . | -23% | -1.8%&4.8% | -1% | -1% | .
CCOc1ccc(-c2nnc(SCC(=O)Oc3ccccc3)o2)cc1 | -5% | ? | . | -28% | -4.4% | . | . | 13%[46.1 µM]
COc1ccc(Cn2c(SCC(=O)NCc3ccccc3)nc3ccccc32)cc1 | ? | . | . | 0% | -6.6% | . | . | -3%[46.1 µM]
Nc1ncc2c(n1)CCN(c1ccc([N+](=O)[O-])cc1)C2 | . | ? | 9% | -12% | . | 0% | -7% | 9%[46.1 µM]
Nc1c(C(=O)Nc2ccccc2F)sc2nc(Cc3ccccc3)cc(C(F)(F)F)c12 | -18% | -10% | 0% | 9% | -1.1% | 11% | 5% | 0%
N#Cc1cc([N+](=O)[O-])ccc1NCCN1CCOCC1 | . | ? | 12% | -11% | . | 1% | 4% | 2%
O=c1c2ccccc2cnn1CCOc1ccccc1 | -3% | 2.1µM* | -4% | 10µM* | -1.2% | -1% | -25% | 0.28µM*
O=C(c1c[nH]c2ccc(S(=O)(=O)N3CCOCC3)cc2c1=O)N1CCCC1 | -2% | -21% | -1% | -5% | 2.6% | 10% | 3% | 10%
Cc1ccc(N(C(=O)c2csnn2)C(C(=O)NCc2ccccc2)c2ccccn2)cc1 (stereo not given) | . | 2%[46.1 µM] | 4% | -4% | . | 1% | 1% | -2%
COc1cc(/C=C/C(=O)OCC(=O)Nc2nnc(-c3ccccc3)o2)cc(OC)c1OC | . | -19% | . | -18% | . | 4% | 0% | -4%
CCOC(=O)C(C)(C)Oc1cccc2c1S(=O)(=O)c1ccccc1-2 | . | 4% | . | 16% | . | . | -15% | -7%
Cc1nc2ccccc2c(=O)n1NC(=O)c1ccccc1F | . | . | 0% | -18% | . | -2% | 4% | .
O=C(CCn1nnc2ccccc21)OCC(=O)c1ccc([N+](=O)[O-])cc1 | . | 9%[46.1 µM] | 18% | -11% | . | -1% | -21% | 4%[46.1 µM]
CCOC(=O)c1cnc2c(C)c(Cl)ccc2c1N1CCOCC1 | 15% | . | -13% | -14% | -6.1% | 1% | -2% | .
COc1cccc(C(C2=C(O)CC(C)(C)CC2=O)C2C(=O)CC(C)(C)CC2=O)c1 (stereo not given) | 8% | 23% | 7% | -13% | -3.5% | 23% | -3% | ?
O=C(COC(=O)c1ccc(S(=O)(=O)Nc2ccccc2)cc1)NC1CCCC1 | . | -3%[46.1 µM] | . | -10% | . | -1% | 14% | 15%
O=C(NCc1ccccn1)c1nn(-c2ccccc2F)nc1CO | -11% | 3%[46.1 µM] | . | 0% | -1.1% | . | . | ?
CCCN1Cc2cccc(C(=O)Nc3ccc4c(c3)OCO4)c2C1=O | ? | 6% | -23% | 8% | -1.5% | -2% | -7% | -5%
CCCn1c(C(C)C)n[nH]c1=S | . | 14%[46.1 µM] | 5% | -6% | . | -3% | 1% | 27%[46.1 µM]
CCSc1nnc(C)c2ccccc12 | 3% | 9% | 1% | -4% | 1.6% | -2% | -7% | -12%

Arranged by molecular weight (rising): eight of the compounds above.
SMILES | Cruzain noTriton | Marburg entry inh | NS1 inh | StopGo reporter | Cruzain inh Det | SARS PLP yeast | RE007 growth inh | LASV entry inh
CCSc1nnc(C)c2ccccc12 | 3% | 9% | 1% | -4% | 1.6% | -2% | -7% | -12%
O=c1c2ccccc2cnn1CCOc1ccccc1 | -3% | 2.1µM* | -4% | 10µM* | -1.2% | -1% | -25% | 0.28µM*
Cc1ccccc1N(Cc1cc(=O)[nH]c2ccccc12)C(=O)C(C)C | . | ? | -1% | -14% | . | -2% | 1% | 2%
O=c1c2ccccc2cnn1Cc1n[nH]c(=S)n1-c1ccccc1 | 1% | ? | 23% | -17% | -2.1% | -7% | 17% | ?
CCCN1Cc2cccc(C(=O)Nc3ccc4c(c3)OCO4)c2C1=O | ? | 6% | -23% | 8% | -1.5% | -2% | -7% | -5%
O=C(COC(=O)c1ccc(S(=O)(=O)Nc2ccccc2)cc1)NC1CCCC1 | . | -3%[46.1 µM] | . | -10% | . | -1% | 14% | 15%
Cc1ccc(N(C(=O)c2csnn2)C(C(=O)NCc2ccccc2)c2ccccn2)cc1 (stereo not given) | . | 2%[46.1 µM] | 4% | -4% | . | 1% | 1% | -2%
Nc1c(C(=O)Nc2ccccc2F)sc2nc(Cc3ccccc3)cc(C(F)(F)F)c12 | -18% | -10% | 0% | 9% | -1.1% | 11% | 5% | 0%

Additional compounds.
SMILES | Cruzain noTriton | Marburg entry inh | NS1 inh | StopGo reporter | Cruzain inh Det | SARS PLP yeast | RE007 growth inh | LASV entry inh
COc1ccc(N2CCN(C(=O)CCC(=O)N3CC(C)Oc4ccc(C)cc43)CC2)cc1 (stereo not given) | . | . | -2% | ? | . | 0% | -4% | .
CCOc1ccc(NC(=O)CCc2nc3cccnc3n2-c2ccccc2)cc1 | -6% | -14%[46.1 µM] | . | -28% | -2.3% | . | . | -14%[46.1 µM]
N#C/C(=C(/O)C(Cl)c1ccccc1)c1nc2ccccc2s1 (stereo not given) | -6% | ? | -3% | 46%[activator] | -11% | -3% | -11% | ?
Cc1nnc(SCC(=O)Nc2ccc(N(C)C)cc2)n(N)c1=O | . | ? | 9% | -2% | . | 1% | 4% | 0%
Cc1nc(NC(=O)CC(C)C)sc1-c1csc(Nc2ccc(Cl)cc2Cl)n1 | 16µM* | . | ? | -10% | -0.6% | -9% | -4% | .
CCC(C)NC(=O)Cn1c(=O)n(CCCC(=O)NCc2ccccc2Cl)c(=O)c2ccccc21 (stereo not given) | 0% | -22% | -9% | -16% | -3.7% | 26% | 0% | -12%
CCOCCCn1c(=N)c(S(=O)(=O)c2ccc(C)cc2)cc2c(=O)n3ccccc3nc21 | -8% | 3%[46.1 µM] | . | 8% | -7.3% | . | . | 3%[46.1 µM]
COC(=O)CC1=C(C(=O)OC)C2(C(=O)Nc3c(C)cccc32)C(C#N)=C(N)O1 (stereo not given) | 1% | -7% | -4% | 0% | 1.9% | -7% | -16% | 14%
O=C(O)/C=C/c1cn(-c2ccccc2)nc1-c1cc2ccccc2o1 | . | ? | -47% | -2% | . | -4% | 3% | -20%[46.1 µM]
O=[N+]([O-])c1ccc(Cl)cc1NCCCN1CCOCC1 | -1% | 1% | 9% | -4% | -1.6% | 2% | -4% | 4%
Cc1csc(=O)n1CCC(=O)OCC(=O)c1c(N)n(C)c(=O)n(C)c1=O | . | -3% | . | -18% | . | -1% | 5% | 7%
O=c1c(-c2ccccc2Cl)coc2c(CN3CCCCC3)c(O)ccc12 | . | . | 3% | -11% | . | 3% | 10% | .
C=CCn1c(SCC(=O)Nc2ccccc2-c2ccccc2)nc2cc(C(=O)O)ccc2c1=O | . | . | 1% | -5% | . | -1% | 2% | .
O=C(CSc1ccccc1)Nc1ccc2sccc2c1 | . | . | -1% | 82%[activator] | . | -3% | -6% | .
CC(C)(C)c1ccc(S(=O)(=O)N2CC3CC(C2)c2cccc(=O)n2C3)cc1 (stereo not given) | 10% | 17% | -5% | . | 2.6% | -1% | -2% | 5%
COc1ccccc1C(=O)Nc1ccc(Nc2ccccc2)cc1 | . | -11%[46.1 µM] | . | 8% | . | . | -11% | 8%
Fc1ccc(N2CCN(Cc3ccc4c(c3)OCO4)CC2)cc1 | 7% | 22% | -4% | -10% | 2.8% | -3% | -8% | -17%[14.3 µM]
COc1ccc(-c2nnc(SCC(=O)NC3CCCC3)n2C)cc1 | . | 26%[46.1 µM] | -2% | 6% | . | 1% | -1% | 18%
Cc1ccccc1NC(=O)CSc1nnc(Cc2cccn2C)n1-c1ccc(F)cc1 | 5% | 0%&0% | -12% | -7% | -0.3% | 25% | -10% | 1%
COc1ccc(CCNC(=O)c2ccc(CS(=O)Cc3ccc(C)cc3)o2)cc1OC (stereo not given) | . | -7%[46.1 µM] | -10% | 4% | . | -7% | -8% | ?
Cc1ccc(NC(=O)Nn2cnnc2)cc1Cl | . | 0%[46.1 µM] | 4% | -10% | . | 2% | -17% | 16%[46.1 µM]
COc1ccc(/C=N/Nc2nc(-c3ccc(Cl)cc3)cc(C(F)(F)F)n2)cc1OC | ? | 0% | 13% | -25% | -9.0% | -32% | -11% | -1%
COc1cc(NC(=O)C2CC2)c(OC)cc1NC(=O)c1ccco1 | . | 12%[46.1 µM] | -2% | -23% | . | 2% | -5% | -24%[46.1 µM]
COc1cc(/C=N/Nc2nc(C)cc(=O)[nH]2)cc(OC)c1O | . | -8%[46.1 µM] | 6% | 2% | . | 0% | 0% | 0%[46.1 µM]
COc1ccccc1NCC(=O)N/N=C/C=C/c1ccccc1 | -22% | -4% | ? | 17% | -5.3% | ? | 10% | -22%
CC(C)(C)OC(=O)N1CCC(c2c(C(=O)NCc3ccccc3)cnn2-c2cccc(F)c2)CC1 | ? | . | . | -21% | -7.2% | . | . | 4%[46.1 µM]
